MgrA DNA FP: S. aureus MgrA-DNA binding modulation; actives 0.13% (n = 84,000); fluorescence polarization; inhibition, %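 (about 10 µg/mL by stock and volumes)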; AID 602314;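 active means above 50% in either of two replicates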;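 further: 0% = protein plus DNA without compound and 100% = DNA alone without protein; higher means less MgrA bound to DNA so lower polarization; one replicate is shown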
Sa helicase inh: blocks Staphylococcus aureus DNA helicase. purified S. aureus helicase, fluorescence unwinding assay; about half of the hits fall short of the stated cut. inhibition, %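 (tested at about 80 µM)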. actives 0.05% (n = 120,000). AID 485395;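 active means both duplicates at 50% or more, or one of them with a favoured structure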;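 further: 0% = mean of negative control wells and 100% = mean of positive control wells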
An asterisk follows results filed as active; · = not tested or not shown; & = joins results of further samples. These rows are one share of the data. The share of hits here may be higher or lower than overall.

Compound,MgrA DNA FP,Sa helicase inh
Cc1cc2c(N=NC(=O)Nc3ccccc3)c(O)[nH]c2cc1Br,·,-7.0
O=C(Cc1nn[nH]n1)Nc1ccc(F)cc1,-3.6,·
O=C(O)c1ccccc1C(=O)Nc1ccc(Br)cc1,-2.2,·
Cc1sc2c(c1C)c(=O)nc1n2Cc2ccccc2-1,·,8.0
Cc1c(C)c(C)c(CN2CCCC2)c(C)c1C,·,-7.0
O=c1[nH]c(SC/C=C/c2ccccc2)nc2sc3c(c12)CCC3,1.9,8.0
NC(=O)c1c(/N=C/c2cc(Br)ccc2O)sc2c1CCCC2,-1.1,·
O=C(c1ccc(F)cc1F)C1CCN(C(=O)c2cccs2)CC1,0.0,·
COC(=O)C1=C(C)OC(N)=C(C#N)C1c1ccccc1C (centres undefined),·,4.0
O=C(CCCOc1ccccc1)Nc1nccs1,-2.9,19.0
FC(F)(F)c1cccc(OCCNc2nc3ccccc3c3nc(-c4cccnc4)nn23)c1,-0.6,15.0
Cc1c(-c2ccccc2)nnn1-c1cccc(Cl)c1C#N,-1.1,·
O=C(Nc1ccccc1)c1ccc2c(c1)OCCCO2,1.9,·
S=c1[nH]c(=S)c2cnn(-c3ccccc3)c2[nH]1,·,10.0
Cc1cc(NC2CCCCC2)nc(-c2ccccc2O)n1,0.2,-1.0
C(=C(c1ccccc1)c1ccccc1)N1CCC1,-3.9,·
Cc1ccc(-c2nnc(SCCC(=O)Nc3ccccc3)n2C)cc1,0.6,1.0
COc1ccccc1C1CCN(S(=O)(=O)c2ccc(Oc3c(Cl)cccc3[N+](=O)[O-])cc2)CC1,-2.0,·
COC(=O)C1=C(C)NC(=O)/C1=C\c1ccc(C(=O)OC)cc1,-6.3,11.0
CSC1=C(C#N)C(c2ccco2)C(C(=O)Nc2ccccc2C)=C(C)N1 (centres undefined),·,4.0
O=C(C(NS(=O)(=O)c1cccc2nsnc12)c1ccccc1)N1CCc2ccccc21 (centres undefined),3.5,4.0
CC(Sc1nnc(-c2c[nH]c3ccccc23)n1C1CC1)C(=O)N(C)C1(C#N)CCCCC1 (centres undefined),·,-18.0
CC(C)C(=O)Nc1cccc(C(=O)NCc2ccc3c(c2)OCO3)c1,0.6,-1.0
Cc1ccc(-c2nn(-c3ccccc3)c3[nH]c(=O)c(CNCCN4CCOCC4)cc23)cc1,-2.7,5.0
NC(N)=NS(=O)(=O)c1ccc(NC(=O)c2ccco2)cc1,0.1,4.0
CCOC(=O)C1=C(N)Oc2cc(C)oc(=O)c2C1c1ccccc1F (centres undefined),-0.8,7.0
Cc1nc2nc(C(F)(F)F)[nH]n2c(=O)c1Cc1ccccc1,·,-16.0
C=CCn1c(COc2cccc(C)c2)nnc1SCC(=O)NC(C)(C#N)C(C)C (centres undefined),·,0.0
Cn1c(C(=O)NCCC2=CCCCC2)cc2oc3ccccc3c21,·,-14.0
CCc1ccc(Nc2nnc(SCC(=O)NC(=O)c3cccn3C)s2)cc1,·,7.0
CCSc1oc(-c2cccs2)nc1S(=O)(=O)c1ccccc1,·,9.0
CN(C)CCNc1cc(-c2cccs2)nc2ccccc12,6.1,·
Clc1ccc(-c2nnsc2Cl)cc1,2.9,·
CCNC(=S)NCCc1ccncc1,0.8,3.0
S=c1[nH][nH]nc1-c1cccc(Cl)c1,3.1,4.0
CC(C)CC(=O)Nc1ccc(NC(=O)CC(C)C)cc1,1.4,1.0
O=c1cc(O)c2sc3nc(-c4cccs4)cc(C(F)(F)F)c3c2[nH]1,-12.4,16.0
CN=C(Nc1cc(C)nn1-c1ccccc1)c1cccs1,-5.8,-16.0
CCCn1c(-c2ccc(OC)cc2)nc2ccccc21,·,-2.0
COc1cc(/C=C/C(=O)/C=C/c2ccc(N(C)C)cc2)cc(OC)c1OC,-2.7,-316.0
CCc1ccc2occ(CC(=O)Nc3sc4c(c3C(=O)OC)CCCC4)c2c1,-0.3,10.0
COC(=O)C1=C(CN2CCCCC2)NC(=O)NC1c1ccccc1Cl (centres undefined),-1.0,18.0
CCc1ccc(NC(=O)CN(C2=NC3CS(=O)(=O)CC3S2)c2ccc(CC)cc2)cc1 (centres undefined),3.5,3.0
Cc1ccc[n+](Cc2ccccc2)c1,-0.9,1.0
OCCN(Cc1ccccc1)Cc1ccc(C(F)(F)F)cc1,-1.1,4.0
Cc1cccc(NC(=S)N(CCCNC2=CC(=O)CC(C)(C)C2)C2CCCCC2)c1,0.4,4.0
O=C(NCCCn1ccnc1)c1cc(Cl)cc(Cl)c1,0.3,-16.0
FC(F)(F)c1cccc(NCn2c(=S)oc3ccc(Cl)cc32)c1,1.0,-10.0
NNC(=S)NCc1ccccc1,·,-16.0
CCOc1ccc(/C=C2\NC(=S)NC2=O)cc1OC,1.5,2.0
COC(=O)c1cccc(NC(N)=S)c1,2.6,2.0
Cc1ccc(SC(C)C(=O)NC(C)(C)C)cc1 (centres undefined),0.8,7.0
CCOC(=O)c1[nH]c(=O)c2ccccc2c1O,·,-22.0
O=C(Cc1cc(=O)[nH]c(=O)[nH]1)N1CCCCC1,·,-8.0
O=C(NCCN1CCOCC1)c1ccc(NC(=O)C2COc3ccccc3O2)cc1 (centres undefined),-2.0,4.0
CC(=O)N1CC=C2C(C#N)=C(N)C(C#N)(C#N)C(Cc3ccccc3)C2C1 (centres undefined),-0.3,13.0
Cc1ccc2oc(=O)c3cnn(CC(=O)Nc4cc(-c5cccc(Cl)c5)no4)c3c2c1,·,9.0
NNC(=O)c1csc(-c2cccs2)n1,-1.6,·
COc1ccc(C2C(=O)N(C3CCCCC3)CC(=O)N2Cc2ccccc2)cc1 (centres undefined),·,-13.0
CCc1nc(NCCN(CC)CC)c(C#N)c2c1COC(C)(C)C2,·,-1.0

More compounds
Compound,MgrA DNA FP,Sa helicase inh
CCOC(=O)c1oc2ccccc2c1COC(=O)c1ccc(S(C)(=O)=O)cc1,·,2.0
CN(C)CCN1C(=O)C(=O)/C(=C(/O)c2ccc(F)cc2)C1c1ccccn1 (centres undefined),·,5.0
Cc1cc2c(cc1C)C(c1ccncc1)CC(=O)N2 (centres undefined),2.2,6.0
O=C(O)c1ccccc1C(F)(F)F,-1.9,-14.0
Cc1noc(C)c1COc1cc2ccccc2cc1C(=O)O,·,6.0
Cc1cc(C)c2c(=O)[nH]c(SCC(=O)Nc3ccccc3)nc2n1,-0.6,9.0
CC(OC(=O)Cn1cnc2ccccc2c1=O)C(=O)NCc1ccccc1 (centres undefined),·,-11.0
O=C(CCCn1c(=O)[nH]c2cc(Cl)ccc2c1=O)NCC1CCCO1 (centres undefined),·,10.0
COc1ccc(OCC(=O)N/N=c2\oc3c(OC)cccc3cc2C(N)=O)cc1,·,4.0
CCOC(=O)c1csc(-c2cccc(C(F)(F)F)c2)n1,-0.3,·
CC(C)C(=O)Nc1ccc(N)cc1,·,7.0
FC(F)(F)c1cc(Sc2ccccc2)nc(-c2ccccn2)n1,-1.8,·
CC1=C(C(=O)OCc2ccccc2)C(c2ccc(OCc3ccccc3)cc2)NC(=O)N1C (centres undefined),-0.7,·
CCn1c(-c2cccs2)c(CNC(=O)NCc2ccccc2)c2ccccc21,·,-3.0
CCN(C(=O)CCn1c(=O)sc2ccccc21)c1cccc(C)c1,·,8.0
Cc1ccc(-c2cc(C(=O)OCC(=O)Nc3ccc(S(N)(=O)=O)cc3)c3ccccc3n2)cc1,·,9.0
O=C(Nc1ccc(S(=O)(=O)Nc2ncccn2)cc1)C1=NN(c2ccccc2)C(=O)CC1,·,-21.0
O=C(/C=C/c1cccc(F)c1)Nc1ccc2c(c1)OCO2,·,-19.0
Brc1ccc(-n2cccc2)nc1,·,-22.0
Cc1nc(NC(=O)c2oc3ccccc3c2C)sc1C(=O)N(C)C,-0.3,-3.0

An excerpt of the results above, as a working copy:
Compound,MgrA DNA FP,Sa helicase inh
Cc1cc2c(N=NC(=O)Nc3ccccc3)c(O)[nH]c2cc1Br,·,-7.0
O=C(Cc1nn[nH]n1)Nc1ccc(F)cc1,-3.6,·
O=C(O)c1ccccc1C(=O)Nc1ccc(Br)cc1,-2.2,·
Cc1sc2c(c1C)c(=O)nc1n2Cc2ccccc2-1,·,8.0

The list continues.
Compound,MgrA DNA FP,Sa helicase inh
O=C1C=C(Nc2ccccc2)CC(c2ccccc2)C1 (centres undefined),-1.1,10.0
COCc1c(C(=O)OCc2cc(Cl)cc3c2OCOC3)oc2ccccc12,·,14.0
O=C(O)/C=C\C(=O)N1CCN(c2nc(-c3ccccc3)ns2)CC1,-3.0,·
CCS(=O)(=O)Nc1cc(C(C)(C)C)on1,-0.5,12.0
N#C/C(=C\N1CCC(n2cccc2)CC1)C(=O)c1ccccc1,·,-22.0
CSC1=C(C#N)C2(CCCC2)C(C#N)C(=O)N1 (centres undefined),-1.4,-4.0
CCN(CC)C(=O)Cn1cc(C(=O)C(C)C)c2ccccc21,0.6,2.0
CCOC(=O)c1cnc(Nc2nc3ccccc3o2)nc1CSc1ncccn1,·,26.0
CC(C)(C)n1nnnc1C(c1ccc2ncccc2c1)N1CCOCC1 (centres undefined),-2.2,18.0
COc1cc(C(=O)OCC(=O)c2cc(C)n(C3CC3)c2C)cc2c1OCCO2,·,-2.0
CC(C)(C)OC(=O)N/N=C\c1cccs1,·,-32.0
Cc1ccc(-c2nc3c(cnn3-c3ccccc3)c(=O)n2-c2cccc(C)c2)cc1,-0.8,6.0
CC1=C(C(=O)c2ccccc2)C(c2ccc(F)cc2)NC(=O)N1 (centres undefined),·,11.0
Cc1cccc(Cl)c1NC(=S)NC(Cc1ccccc1)c1ccccc1 (centres undefined),-0.6,·
CCNc1cc(Cl)nc(SC)n1,5.0,·
CCOC(=O)c1c(N2C(=O)CCC2=O)sc2c1CCC(C)C2 (centres undefined),2.2,-8.0
c1ccc(-c2nnn(-c3cnc4ccccc4c3)n2)cc1,-0.6,-1.0
Cc1ccc(CN(C(=O)c2ccccc2)C2CCS(=O)(=O)C2)cc1 (centres undefined),0.1,10.0
CCN(CC(=O)NCc1ccc(F)cc1)C(=O)c1cccnc1SC,·,-2.0
Cn1cnnc1SCC(=O)NCc1cccc(C(F)(F)F)c1,0.8,11.0
CCCSc1nnc2c(n1)OC(c1cc3c(cc1[N+](=O)[O-])OCO3)Nc1ccccc1-2 (centres undefined),27.2,·
O=C1CCN(S(=O)(=O)c2ccc(Cl)cc2)CCN1,·,5.0
CC1(C)CN(c2ccc(N3CC(C)(C)C3=O)cc2)C1=O,0.5,·
O=C(c1ccc(NS(=O)(=O)c2ccccc2)cc1)N1CCCC1,-0.1,16.0
COc1ccc2nc(NC(=O)NC34CC5CC(C3)CC(c3ccc(C)cc3)(C5)C4)sc2c1,-1.3,·
Clc1cccc(C=NN2CCN(Cc3ccccc3)CC2)c1Cl,5.0,9.0
N#Cc1c(-c2cccnc2)c2c([nH]c1=O)-c1ccccc1CC2,-0.4,·
CC(C)CCNc1cc(=O)n(C)c(=O)n1C,·,2.0
CCOC(=O)C1CC1c1ccccc1 (centres undefined),0.2,14.0
COC(=O)C1CSCN1C(=O)Nc1ccccc1 (centres undefined),·,-20.0
COc1ccc(C(=O)OCc2cc(C)on2)cc1Br,·,-9.0
COC(=O)C1=C(C)NC2=C(C(=O)CC(C)(C)C2)C1c1sccc1C (centres undefined),-2.2,·
O=C(Nc1ccc(Cl)cc1)C1CCCCC1,2.8,3.0
CCOC(=O)CCn1cc(/C=C(\C#N)C(N)=S)c(-c2ccccc2)n1,·,3.0
CCc1ccc(NC(=O)CSC)cc1,0.7,21.0
CCn1c(SCC(=O)N2CCC(C)CC2)nnc1-c1c[nH]c2ccccc12,·,15.0
COC(=O)C1=C(C)NC2=C(C(=O)CC(c3ccc(Cl)cc3)C2)C1c1ccccc1 (centres undefined),0.2,10.0
COc1ccccc1C(=O)Nc1ccccc1-c1nnn(CC(=O)N2CCN(c3ccc(F)cc3)CC2)n1,-0.4,12.0
CCCN(CCC)C(=O)c1cnn(-c2ccccc2)c1NC(=O)c1ccccc1,2.3,8.0
Cc1cccc(N2CCN(C(=O)Cc3ccc(-n4c(=O)[nH]c5ccsc5c4=O)cc3)CC2)c1C,1.1,11.0
CC1(C)Oc2ccc(C(=O)N/N=C/c3cccs3)cc2NC1=O,-1.1,3.0
O=C(Nc1ccc(Br)cc1C(F)(F)F)C(F)(F)F,-1.6,·
C/C(c1cccs1)=[N+](/[O-])C(C)/C(=N/O)c1ccco1 (centres undefined),·,1.0
Nc1c(NCC(c2ccco2)N2CCCCC2)c(=O)[nH]c(=O)n1Cc1ccccc1 (centres undefined),·,9.0
CCCc1cc2c(=O)c(-c3ccccn3)coc2cc1OC,·,-18.0&-15.0
Cc1ccc(NC(=O)CCn2c(=O)c3cccn3c3ccccc32)cc1,·,20.0

Source: PubChem (ICCB-Longwood Screening Facility, Harvard Medical School)
